# High-throughput results as filed in PubChem.
# CtBP-E1A blk: qHTS Assay for Inhibitors of the CtBP/E1A Interaction. CtBP / adenovirus E1A interaction (AlphaScreen). AlphaScreen GST-E1A/His-CtBP binding, 1536-well; stronger effect = lower value; control for the full effect not named in the record. activity change, % (concentration not given with the values). 0.49% of 340,000 active. AID 651724, 2012; in the data active means activity change below about -65%; inconclusive means about -30% to -65%; inactive means above about -30%; further: on the % scale 0 is the no-effect control and ±100 the full control effect
#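 AlphaScreen with 125 nM GST-E1A and 125 nM His-CtBP (5X stocks) in Tris pH 8.0, 300 mM NaCl, BSA, Tween 20, TCEP. Compounds preincubated 2 h at 37 deg C, then glutathione donor/nickel acceptor beads added for 1 h at 37 deg C in dark.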
# D2 potentiator: Beta-Arrestin HTS for Positive Allosteric Modulators of the Human D2 Dopamine Receptor: Potentiators | D(2) dopamine receptor (Homo sapiens), P14416 | DiscoveRx D2 beta-arrestin cells, luminescence, 90 min; 100% = 57 uM dopamine signal | potentiation, % (no concentration beside the values) | 0.23% of 360,000 active | AID 624464, 2012; active = potentiation of 50% or more; inconclusive = 30% to 50%; inactive = 30% or less;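 further: compound concentration not given in the record; tested on top of an EC20 dose of dopamine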
# Target sequence (P14416 whole entry, looked up): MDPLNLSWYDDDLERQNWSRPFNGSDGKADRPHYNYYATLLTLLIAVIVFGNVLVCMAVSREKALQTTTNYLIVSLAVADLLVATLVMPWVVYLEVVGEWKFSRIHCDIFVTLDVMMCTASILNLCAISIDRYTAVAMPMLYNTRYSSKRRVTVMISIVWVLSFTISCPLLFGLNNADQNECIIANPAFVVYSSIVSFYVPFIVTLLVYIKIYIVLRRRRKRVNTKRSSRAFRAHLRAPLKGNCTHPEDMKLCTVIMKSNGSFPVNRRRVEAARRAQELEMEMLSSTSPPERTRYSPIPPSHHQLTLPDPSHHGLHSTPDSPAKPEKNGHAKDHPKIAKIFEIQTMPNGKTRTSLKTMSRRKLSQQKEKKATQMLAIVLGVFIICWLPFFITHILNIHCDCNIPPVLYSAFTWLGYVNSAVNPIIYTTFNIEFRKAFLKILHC
#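 PathHunter D2 cells, attached overnight at 37 deg C, received compound in DMSO plus dopamine at EC20 (50 nM final) for 90 min at 37 deg C. Beta-arrestin recruitment was read as luminescence after 1 h with detection reagent at ambient temperature.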
# D2 agonist: Beta-Arrestin HTS for Positive Allosteric Modulators of the Human D2 Dopamine Receptor: Agonists; D(2) dopamine receptor (Homo sapiens), P14416; DiscoveRx PathHunter D2 beta-arrestin, luminescence, 90 min; 100% = 57 uM dopamine signal; activation, % (concentration not given with the values); 0.084% of 360,000 active; in the data active = activation above about 40%; inconclusive = about 15% to 40%; inactive = below about 15%; further: compound concentration not given in the record; the text of the record calls up to 30% inactive
#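 DiscoveRx PathHunter D2 beta-arrestin cells (2,100/well) attached overnight, then compound-stimulated 90 min at 37 C in HBSS/10 mM HEPES/0.1% Tween-20 buffer; beta-galactosidase complementation read by luminescence after 1 h at ambient temperature. Dopamine 57 uM final (EC100) as control.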
# gsp agonist: qHTS for Agonist of gsp, the Etiologic Mutation Responsible for Fibrous Dysplasia/McCune-Albright Syndrome: qHTS. gsp mutant cells, cAMP HTRF, 30 min; control for the full effect not named in the record. Potency, µM (titrated, usually from 76.9 µM), without a hit: top-dose activation (cAMP increase), most hits filed as activators. 0.13% of 340,000 active; active = well fitted activation curve with a large enough effect; inconclusive = small, poorly fitted or top-dose-only effect, or another doubt; inactive = no such curve, though single readings can be large or run the other way; cell line not stated here;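 further: phosphodiesterase inhibitor Ro 20-1724 added with compounds to block cAMP breakdown; potency means the concentration at half of the fitted maximal effect; nearly all actives have a fitted effect of over 60% in size; about a fifth of the inactives were tested at one dose only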
#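 Cells in DMEM/10% FBS with G418 were pretreated with compounds in DMSO plus […] (300 uM stock) for 30 min at 37C. cAMP was measured by HTRF (cAMP-d2 plus anti-cAMP antibody-K) after 30 min at room temperature.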
# gsp antagonist: qHTS for Antagonists of gsp, the Etiologic Mutation Responsible for Fibrous Dysplasia/McCune-Albright Syndrome: qHTS | Potency, µM (top dose mostly 76.9 µM), for inactives: top-dose activity change, negative = inhibition, hits mostly inhibitors | gsp-mutant cells, cAMP HTRF, 30 min; control for the full effect not named in the record | 0.4% of 340,000 active; active = falling curve of any shape with a large fitted effect; inconclusive = falling curve, mostly with a smaller effect; inactive = flat or rising curve; cell line not stated here;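 further: intracellular cAMP measured with PDE inhibitor Ro 20-1724 present during compound exposure; potency means the concentration at half of the fitted maximal effect; on the % scale 0 is the no-effect control and ±100 the full control effect; nearly all actives have a fitted effect of over 65% in size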
#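 Cells, 2000/well, grown 16–24 h in DMEM 10% FBS with 0.5 mg/ml G418, then compounds plus […] (300 uM addition stock), 30 min at 37C. cAMP read by HTRF (cAMP-d2 and anti-cAMP antibody-K in lysis buffer) after 30 min RT.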
# Six1-Eya2 blk: qHTS Assay for Inhibitors of the Six1/Eya2 Interaction. Homeobox protein SIX1 (Homo sapiens) + Protein phosphatase EYA2 (Homo sapiens), …. AlphaScreen GST-Six1/His-Eya2 binding, biochemical; stronger effect = lower value; control for the full effect not named in the record. activity change, % (no concentration beside the values). 0.56% of 360,000 active; in the data active = activity change below about -65%; inconclusive = about -30% to -65%; inactive = above about -30%; further: on the % scale 0 is the no-effect control and ±100 the full control effect; compound concentration not given in the record
#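 Homogeneous AlphaScreen proximity assay pairing GST-Six1 with His-tagged Eya2 (added as 5X mix: 250 nM and 500 nM) in 50 mM Tris pH 8.0, 300 mM NaCl, 1 mM TCEP. Glutathione donor and nickel acceptor beads; 1 h, 37 °C, dark.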
# * hit, by the source's call; ? = inconclusive; · = not tested or not shown; [ ] = dose if it differs, or a comment.
# Results follow in this order: gsp agonist, Six1-Eya2 blk, gsp antagonist, D2 agonist, CtBP-E1A blk, D2 potentiator
CCC(C)[C@H](NC(=O)N1CCN(c2cccc(C(F)(F)F)c2)CC1)C(=O)OC (stereo not given in full)
    -36%[inhibitor], 4, -1%, -0.3, 0, -9
COC(=O)c1ccc(NC(=S)Nc2ccc3ccccc3c2)cc1
    22%, -8, 5%, -0.4, -2, -19
CCc1nc2ccccc2n1CC(C)C(=O)O (stereo not given)
    -27%, 3, 2%, -1.3, 0, -1
Fc1ccc(-c2cc(C(F)(F)F)nc(N3CCCCC3)n2)cc1
    12%, 80, -8%, -2.9, 61, -22
COc1ccc(CNC(=O)CN2C(=O)NC(c3ccccc3)(c3ccccc3)C2=O)cc1OC
    9%, 0, -4%, 1.3, -7, -12
Cc1cc(F)ccc1S(=O)(=O)Nc1ccccc1C(=O)Nc1ccc2[nH]c(=O)[nH]c2c1
    5%, 3, -11%, 1.1, -10, -1
CN(C)/C=C/c1[nH]c(=O)[nH]c(=O)c1[N+](=O)[O-]
    -15%, 1, 6%, -4.0, 3, -5
CC(=O)N1CCN(CC(O)COc2ccc(S(=O)(=O)N3CCOCC3)cc2)CC1 (stereo not given)
    ?, 1, 10%, -3.6, 10, -12
CC(C)c1ccc(/C=N/NC(=O)C2CCCC2)cc1
    -1%, -2, -6%, -3.6, 6, -22
CN1c2ccccc2Oc2nnc(Cl)cc21
    16%[15.4 µM], -7, 11%, -1.6, -3, -11
COC(=O)c1ccc(COC(=O)C2CCN(S(=O)(=O)c3c(C)cc(C)cc3C)CC2)o1
    -61%[inhibitor], 5, ·, 2.3, 3, -3
N#Cc1ccc(CN2CCN(C(=O)c3cccc(S(=O)(=O)N4CCCCCC4)c3)CC2)cc1
    3%, -6, -4%, 3.7, 0, -12
O=C(Nc1ccccc1)Nc1nnc(-c2ccccc2)o1
    22%, -2, 1%, -4.0, -2, -5
COc1cc(NC(=S)N2CCCC2)cc(OC)c1
    -10%, 4, 3%, -3.0, 1, -10
CCOc1ccc(CCNC(=O)c2cc3sc(Cl)cc3n2C)cc1OCC
    -13%, -4, 12%, -0.4, -4, 1
COc1cc(NC(=O)c2cc(-c3ccco3)on2)c(OC)cc1Cl
    ?, 0, 9%, -0.8, 5, 1
Cc1cc2oc(=O)cc(-c3cc4ccccc4o3)c2cc1O
    -143%[inhibitor], 1, -15%, 0.7, ·, -2
CCOc1ccc(N(CC(=O)N2CCCC2)S(=O)(=O)c2c(C)noc2C)cc1
    -50%[inhibitor], 13, 8%, -0.6, -2, -4
NC(=O)Cc1cn(-c2ncc(C(F)(F)F)cc2Cl)c2ccccc12
    -7%, -2, -12%, -4.1, 5, 1
Cc1cccc(C)c1NC(=O)COc1ccccc1C(=O)Nc1ccc(Br)cn1
    38%[15.4 µM], 9, 3%, -0.4, 2, -3
Cc1cnc(NC(=O)c2cc(S(=O)(=O)N(C)C)ccc2N2CCCC2)s1
    -20%, -11, -9%, -2.7, -13, -8
COc1ccc(CNC(=O)C(=O)NCC2OCCN2S(=O)(=O)c2ccc(OC)cc2)cc1 (stereo not given)
    2%[15.4 µM], 4, -4%, -3.7, 15, -9
COc1ccc(C2C(C(=O)c3ccc(C)o3)=C(O)C(=O)N2Cc2cccnc2)cc1OC (stereo not given)
    13%[15.4 µM], -7, 16%, -4.0, 7, 0
CCn1c(=O)c(C(=O)CN2CCCc3ccccc32)c(N)n(Cc2ccccc2)c1=O
    -47%[inhibitor], -1, -2%, 1.3, -13, 0
CCOc1ccc(NC(=S)NNc2ccnc3cc(Cl)ccc23)cc1
    19%[15.4 µM], -20, -79%, ?, 11, 27
CCS(=O)(=O)N1CCC(C(=O)Nc2cccc(C(C)=O)c2)CC1
    2%, -4, 2%, 0.2, -3, -7
Cc1cc(N2CCOCC2)n2cc(-c3ccccc3)nc2n1
    2%[15.4 µM], -6, 3%, -2.7, -6, -5
O=c1c2c(nc3n1CCCCC3)sc1c(O)c(Br)ccc12
    -2%, -7, -9%, -2.9, 5, -12
CN(C)Cc1cc(C(C)(C)c2ccccc2)ccc1O
    23%, -7, 23%, -2.1, -4, -23
Cc1c(NC(=O)CN2C(=O)NC3(CCCCC3C)C2=O)cccc1[N+](=O)[O-] (stereo not given)
    7%, 0, 18%, -2.4, 2, -1
O=C1CC(Sc2nnnn2-c2ccccc2)C(=O)N1c1cccc(Cl)c1 (stereo not given)
    5%, 13, 7%, -2.9, -1, -49
CCCCN(C(=O)c1cnc2n(c1=O)CCS2)c1ccccc1
    -37%[inhibitor], -3, 8%, -4.1, -4, -3
CC(C)Cn1cnc2c(SCCc3ccccc3)nc(N)nc21
    -16%, 0, -6%, 3.1, 6, -4
CN1CCN(CCC(=O)N/N=C/C=C2\N(C)c3ccccc3C2(C)C)CC1
    6%[15.4 µM], -2, -18%, -3.3, -2, -22
CC(C)(C)C(=O)Cn1c(NCCO)nc2ccccc21
    35%, 6, 3%, -3.3, 0, 7
CCOC(=O)CN1C(=O)Nc2ccc(Br)cc2C1c1ccccc1 (stereo not given)
    -51%[inhibitor], -2, -14%, -2.2, -16, -10
O=C(CC[C@H]1O[C@@H](n2ccc(=O)[nH]c2=O)[C@H](O)[C@@H]1O)N[C@H](Cc1ccccc1)C(=O)NCc1cccs1
    ·, 5, ·, -6.2, -2, -7
O=C(CCNS(=O)(=O)c1cccc2nsnc12)NCc1ccccc1
    -9%, -1, 5%, -0.1, 11, 1
CCCC(=O)Nc1sc(C)c(C)c1C(=O)Nc1cccc(C)c1
    -23%, 15, 6%, 0.8, 50, -16
CC(CCc1ccccc1)NC(=O)COC(=O)c1cccs1 (stereo not given)
    7%, 5, 11%, 0.5, -14, -5
CCN(CC)S(=O)(=O)c1ccc(N2CCOCC2)c(NS(=O)(=O)c2cccs2)c1
    ?, 3, 5%, 2.3, 7, 0
Cn1cc(SCC(=O)O)c2ccccc21
    24%, 5, 6%, 0.5, -6, -9
COc1ccc(C2CC(c3ccc(C(F)(F)F)cc3)=NN2c2ccc(S(N)(=O)=O)cc2)cc1 (stereo not given)
    ·, 40, 5%, -0.5, 52, -1
CC(CCc1ccccc1)NC(=O)c1ccc(Br)o1 (stereo not given)
    0%, 1, -9%, -4.3, -17, -10
Cc1cccc(-n2c(N)cc(=O)nc2SCC(=O)Nc2nnc(C)s2)c1
    29%[15.4 µM], 2, -1%, -3.9, 8, -13
Nc1nc(CSc2ncn(-c3ccccc3)n2)cs1
    0%, -1, 7%, -1.7, -6, -4
CC12CCC(C/C1=N\N=C1\NC(=O)/C(=C\c3cccc(Br)c3)S1)C2(C)C (stereo not given)
    17%[15.4 µM], -27, -31%, 6.4, -7, -21
CCN1CCN(c2ccc(S(=O)(=O)N3CCCCC3)cc2NC(=O)CCNC(C)=O)CC1
    2%, 3, 8%, -3.5, 1, -11
CN(Cc1ccccc1)S(=O)(=O)c1ccc(Cl)c(C(=O)NCc2ccncc2)c1
    -3%[15.4 µM], 0, -10%, -2.0, 1, -10
CCN(CC)C(=O)c1ccc(COc2ccccc2Br)o1
    -17%, 5, -4%, 2.1, -1, -19

# Carrying on.
# Results follow in this order: gsp agonist, Six1-Eya2 blk, gsp antagonist, D2 agonist, CtBP-E1A blk, D2 potentiator
O=C(COc1ccccc1-c1ccccc1)N/N=C/c1cccc2ccccc12
    17%, -4, 6%, -0.1, -5, -2
O=C(CCn1nnc2ccccc21)N1CCC(O)(c2cccc(F)c2)CC1
    -37%[inhibitor], -1, 10%, 0.9, -2, -13
CCOc1ccc(CCNC(=O)COC(=O)COc2ccc(C(=O)CC)cc2)cc1OCC
    -7%, 0, 1%, 3.1, 7, 1
CCN(CC(=O)Nc1c(F)cccc1F)C(=O)CCCc1cccs1
    -74%[inhibitor], 4, -1%, -6.0, -5, -1
O=C(COc1ccc(Cl)cc1Br)OCC(=O)c1ccc[nH]1
    -26%, -6, 2%, 4.4, ·, -2

# Structural class: the compounds so far containing a Cl atom (8)
# Results follow in this order: gsp agonist, Six1-Eya2 blk, gsp antagonist, D2 agonist, CtBP-E1A blk, D2 potentiator
CN1c2ccccc2Oc2nnc(Cl)cc21
    16%[15.4 µM], -7, 11%, -1.6, -3, -11
CCOc1ccc(CCNC(=O)c2cc3sc(Cl)cc3n2C)cc1OCC
    -13%, -4, 12%, -0.4, -4, 1
COc1cc(NC(=O)c2cc(-c3ccco3)on2)c(OC)cc1Cl
    ?, 0, 9%, -0.8, 5, 1
NC(=O)Cc1cn(-c2ncc(C(F)(F)F)cc2Cl)c2ccccc12
    -7%, -2, -12%, -4.1, 5, 1
CCOc1ccc(NC(=S)NNc2ccnc3cc(Cl)ccc23)cc1
    19%[15.4 µM], -20, -79%, ?, 11, 27
O=C1CC(Sc2nnnn2-c2ccccc2)C(=O)N1c1cccc(Cl)c1 (stereo not given)
    5%, 13, 7%, -2.9, -1, -49
CN(Cc1ccccc1)S(=O)(=O)c1ccc(Cl)c(C(=O)NCc2ccncc2)c1
    -3%[15.4 µM], 0, -10%, -2.0, 1, -10
O=C(COc1ccc(Cl)cc1Br)OCC(=O)c1ccc[nH]1
    -26%, -6, 2%, 4.4, ·, -2
